CSC inhib: cancer stem cell inhibition; cancer stem cell-like cells viability, luminescence; inhibition, % at 7.5 µM; hit rate 1.1% among 300,000; AID 2717;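 active means mean at 75% or more and at least half the replicates too; inconclusive means mean and replicates disagree; tested in HMLE shEcad cells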;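 further: 0% = median of negative and 100% = median of positive control wells; the first replicate is given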
PABP polyA inh: blocks human PABP binding to poly(A) RNA | AID 2014 | hit rate 1% among 290,000 | inhibition, % at 35 µM | fluorescence polarization;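 active means 50% or more with normal probe brightness, or confirmed in later tests; inconclusive means above 50% with abnormal brightness, or retests that disagree; inactive means below 50% or failed in later tests; about a fifth of its hits are not listed in these tables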;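 further: calls also rest on retests at 20 µM and on dose response follow-up; controls were probe without protein and protein plus probe with vehicle; some compounds called inactive have numbers as strong as hits; many hits fall short of the cut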
Target sequence (P11940 whole entry, looked up): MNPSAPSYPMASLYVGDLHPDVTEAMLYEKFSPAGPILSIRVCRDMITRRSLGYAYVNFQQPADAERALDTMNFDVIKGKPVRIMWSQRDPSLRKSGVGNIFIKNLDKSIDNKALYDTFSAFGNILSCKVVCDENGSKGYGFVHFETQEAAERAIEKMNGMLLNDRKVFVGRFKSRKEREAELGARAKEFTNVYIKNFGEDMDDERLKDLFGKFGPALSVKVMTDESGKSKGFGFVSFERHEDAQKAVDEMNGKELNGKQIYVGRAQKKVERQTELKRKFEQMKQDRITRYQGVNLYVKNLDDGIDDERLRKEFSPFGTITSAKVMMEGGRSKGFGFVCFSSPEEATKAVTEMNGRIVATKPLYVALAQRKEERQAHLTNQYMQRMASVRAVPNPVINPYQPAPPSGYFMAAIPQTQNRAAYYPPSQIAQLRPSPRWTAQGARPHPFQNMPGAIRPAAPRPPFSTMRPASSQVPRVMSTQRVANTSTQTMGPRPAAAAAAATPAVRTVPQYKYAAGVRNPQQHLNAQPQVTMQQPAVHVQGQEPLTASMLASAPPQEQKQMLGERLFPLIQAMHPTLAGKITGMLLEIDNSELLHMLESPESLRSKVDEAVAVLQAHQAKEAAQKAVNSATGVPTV
Rce1 inh: inhibitors of yeast Ras-converting enzyme | Q03530 | yeast membranes, quenched prenylated peptide cleavage fluorescence | calls only | hit rate 0.27% among 290,000 | AID 2563;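 active means fall in fluorescence gain of 50% or more versus controls, with final raw signal at or below 3038400; inconclusive means same 50% fall but final raw signal above 3038400; inactive means fall in fluorescence gain under 50%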;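 further: plate controls were neutral control wells for no effect and wells lacking membranes for full effect; tested at 10 µM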
HIV Env fusion: HIV envelope-mediated fusion inhibition; HeLa-JRFL Env/CEM21 cell fusion, luciferase; inhibition, % at 12.3 µM; hit rate 1.1% among 360,000;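 active means mean replicate inhibition score of at least 50 and every replicate individually at or above 50; inconclusive means only one of the two criteria met; inactive means mean below 50 and not all replicates reaching 50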;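 further: 0% = plate neutral controls and 100% = maraviroc near 300 nM; one replicate is shown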
Yeast UUG start: modulators of start codon recognition fidelity in yeast; S. cerevisiae UUG-firefly luciferase reporter, luminescence/redox ratio; activity score, % at 18.7 µM; hit rate 0.13% among 350,000;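 active means replicate mean at a twofold rise or more, about +100% in these data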;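 further: firefly luciferase made from a UUG start codon reports start codon fidelity; reporter light over untreated wells divided by growth signal over untreated wells; some hits fall short of that in this replicate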
eIF4H FP inh: inhibitors of RNA binding by human eIF4H; Q15056; eIF4H fluorescence polarization binding assay; inhibition, % at 35 µM; hit rate 0.94% among 290,000;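 active means 50% or more with normal probe brightness, or confirmed in later tests; inconclusive means above 50% with abnormal brightness, or retests that disagree; inactive means below 50% or failed in later tests; about a fifth of its hits are not listed in these tables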;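 further: calls also rest on retests at 20 µM and on dose response follow-up; 0% = protein and probe with vehicle and 100% = probe without protein; strong numbers were not always called active; many hits fall short of the cut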
MT1-MMP act inh: inhibitors of human MT1-MMP activation; P50281; HT1080 RFP-PRO-GFP cells, GFP/RFP ratio fluorescence, overnight; percent of plate control window, DMSO zero; GFP/RFP ratio change, % at 20 µM; hit rate 0.061% among 360,000; AID 651647;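 active means GFP/RFP ratio change of at least 30% with cell ATP level not reduced by more than half and red fluorescence within 50% of control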; further: strong numbers were not always called active
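Test system: HT1080 cells expressing an RFP-PRO-GFP fluorescent reporter construct / Compound dosing: single-point 20 µM compound, 1% DMSO / Schedule: cells overnight before dosing, compound overnight, 37 °C, 5% CO2 / Evaluation: GFP/RFP fluorescence ratio / Control set: DMSO and RFP-L50D-GFP cell wells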
MT1-MMP act inh RFP: also measured in MT1-MMP act inh; calls as there; RFP signal change, %; measured here: RFP expression control read;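 0 = vehicle wells; hits needed this value within 50% of zero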
Numbers without * were called inactive; i = inactive; ? = inconclusive; . = not tested or not shown. An excerpt; count on the stated rates, not on these rows.

SMILES	CSC inhib	PABP polyA inh	Rce1 inh	HIV Env fusion	Yeast UUG start	eIF4H FP inh	MT1-MMP act inh	MT1-MMP act inh RFP
CC(=O)c1cccc(NS(=O)(=O)c2c(C)n[nH]c2C)c1	-9	6	i	.	0	2	1	5
O=C(/C=C/Sc1ccc(C(F)(F)F)cn1)c1ccccc1	45	-2	i	-12	-12	-1	11	3
CCCc1nn(CCc2ccccn2)c(N)c1CC	-2	3	i	-54	-18	-4	10	4
CN1C(=O)C2(C(C#N)=C(N)N(c3ccc(Cl)cc3)C3=C2C(=O)CC(C)(C)C3)c2ccccc21 (stereo not given)	4	-2	i	.	3	9	0	3
CC1(C)CC(=O)C2=C(C1)N(c1ccccc1)C(N)=C(C#N)C2c1ccccc1 (stereo not given)	22	-4	i	-115	-17	4	-3	-5
CCOc1ccc(/C=N/n2c(C)nnc2C)cc1OC	-10	3	i	11	.	-2	4	5
O=C(Nc1ccccc1OC(F)F)c1ccccc1	5	6	i	-34	2	6	-4	-2
CCOC(=O)c1cccc(NC(=O)CSc2nnc(C3CCCCC3)n2CC)c1	43	5	.	-24	-15	-6	0	0
COC(=O)c1ccc(C2SCC(=O)N2Cc2ccccc2)cc1 (stereo not given)	4	8	i	.	-6	4	4	4
CC(C)c1onc(C(=O)N2CCOCC2)c1[N+](=O)[O-]	.	6	i	-2	.	-3	3	3
C#CCNC(=O)C1=C[C@@H](c2ccc(Br)cc2)[C@H](CCCO)[C@@H](OCC)O1	6	-14	i	0	2	0	-2	0
O=C(O)CSCc1ccc(Cl)cc1	-1	7	i	.	-1	-1	4	7
COCCN(C(=O)CC(C)(C)C)c1nnc(-c2cccnc2)s1	-10	-2	i	.	.	3	0	-3
Cc1cc(NCc2ccc(F)cc2)nc2cc(Cl)ccc12	23	2	i	23	-5	-22	1	0
CCOC(=O)C1CCCN(C(=O)c2cccc(S(=O)(=O)NCc3ccccc3)c2)C1 (stereo not given)	.	.	.	-11	-3	.	3	1
COC(=O)CCC(=O)OC1(C)C(=O)C=C2C=C(C3CC3)N(c3cccc(C#N)c3)C=C2C1=O (stereo not given)	8	?	i	.	-10	?	-4	10
COc1ccc(NC(=O)NCCN2CCN(c3cccc(Cl)c3)CC2)cc1	12	3	i	-42	-14	-8	-9	-3
CCOC(=O)C1=C(COC(=O)CNS(=O)(=O)c2ccc(C)c(C)c2)NC(=O)NC1C (stereo not given)	.	.	.	-28	16	.	2	4
O=C(Nc1ccccn1)c1cc2ccccc2o1	47	44	i	.	-74	10	3	1
COc1cccc(CN2CC(C(=O)N3CCCCCC3)CCC2=O)c1 (stereo not given)	-10	-3	.	-22	14	-6	-4	-3

20 entries from above, in markdown:
| SMILES | CSC inhib | PABP polyA inh | Rce1 inh | HIV Env fusion | Yeast UUG start | eIF4H FP inh | MT1-MMP act inh | MT1-MMP act inh RFP |
| --- | --- | --- | --- | --- | --- | --- | --- | --- |
| CC(=O)c1cccc(NS(=O)(=O)c2c(C)n[nH]c2C)c1 | -9 | 6 | i | . | 0 | 2 | 1 | 5 |
| O=C(/C=C/Sc1ccc(C(F)(F)F)cn1)c1ccccc1 | 45 | -2 | i | -12 | -12 | -1 | 11 | 3 |
| CCCc1nn(CCc2ccccn2)c(N)c1CC | -2 | 3 | i | -54 | -18 | -4 | 10 | 4 |
| CN1C(=O)C2(C(C#N)=C(N)N(c3ccc(Cl)cc3)C3=C2C(=O)CC(C)(C)C3)c2ccccc21 (stereo not given) | 4 | -2 | i | . | 3 | 9 | 0 | 3 |
| CC1(C)CC(=O)C2=C(C1)N(c1ccccc1)C(N)=C(C#N)C2c1ccccc1 (stereo not given) | 22 | -4 | i | -115 | -17 | 4 | -3 | -5 |
| CCOc1ccc(/C=N/n2c(C)nnc2C)cc1OC | -10 | 3 | i | 11 | . | -2 | 4 | 5 |
| O=C(Nc1ccccc1OC(F)F)c1ccccc1 | 5 | 6 | i | -34 | 2 | 6 | -4 | -2 |
| CCOC(=O)c1cccc(NC(=O)CSc2nnc(C3CCCCC3)n2CC)c1 | 43 | 5 | . | -24 | -15 | -6 | 0 | 0 |
| COC(=O)c1ccc(C2SCC(=O)N2Cc2ccccc2)cc1 (stereo not given) | 4 | 8 | i | . | -6 | 4 | 4 | 4 |
| CC(C)c1onc(C(=O)N2CCOCC2)c1[N+](=O)[O-] | . | 6 | i | -2 | . | -3 | 3 | 3 |
| C#CCNC(=O)C1=C[C@@H](c2ccc(Br)cc2)[C@H](CCCO)[C@@H](OCC)O1 | 6 | -14 | i | 0 | 2 | 0 | -2 | 0 |
| O=C(O)CSCc1ccc(Cl)cc1 | -1 | 7 | i | . | -1 | -1 | 4 | 7 |
| COCCN(C(=O)CC(C)(C)C)c1nnc(-c2cccnc2)s1 | -10 | -2 | i | . | . | 3 | 0 | -3 |
| Cc1cc(NCc2ccc(F)cc2)nc2cc(Cl)ccc12 | 23 | 2 | i | 23 | -5 | -22 | 1 | 0 |
| CCOC(=O)C1CCCN(C(=O)c2cccc(S(=O)(=O)NCc3ccccc3)c2)C1 (stereo not given) | . | . | . | -11 | -3 | . | 3 | 1 |
| COC(=O)CCC(=O)OC1(C)C(=O)C=C2C=C(C3CC3)N(c3cccc(C#N)c3)C=C2C1=O (stereo not given) | 8 | ? | i | . | -10 | ? | -4 | 10 |
| COc1ccc(NC(=O)NCCN2CCN(c3cccc(Cl)c3)CC2)cc1 | 12 | 3 | i | -42 | -14 | -8 | -9 | -3 |
| CCOC(=O)C1=C(COC(=O)CNS(=O)(=O)c2ccc(C)c(C)c2)NC(=O)NC1C (stereo not given) | . | . | . | -28 | 16 | . | 2 | 4 |
| O=C(Nc1ccccn1)c1cc2ccccc2o1 | 47 | 44 | i | . | -74 | 10 | 3 | 1 |
| COc1cccc(CN2CC(C(=O)N3CCCCCC3)CCC2=O)c1 (stereo not given) | -10 | -3 | . | -22 | 14 | -6 | -4 | -3 |

The results go on.
SMILES	CSC inhib	PABP polyA inh	Rce1 inh	HIV Env fusion	Yeast UUG start	eIF4H FP inh	MT1-MMP act inh	MT1-MMP act inh RFP
CC(=O)NCCNc1nc2cc(-c3ccc(C(=O)N4CCN(C)CC4)cc3)sc2c(=O)n1C	.	.	.	-4	-22	.	1	-2
O=C(Nc1ccc(S(=O)(=O)Nc2ncccn2)cc1)c1cccc(S(=O)(=O)N2CCCC2)c1	-10	-10	i	11	4	-13	11	4
C[C@@H](O)CNC(=O)c1[nH]cnc1C(=O)Nc1ccc(CNC(=O)OC(C)(C)C)cc1	.	.	.	?	-13	.	3	-4
COc1ccc2c(c1)c(C(O)CN1CCC(Cc3ccccc3)CC1)c(C)n2C (stereo not given)	-15	4	i	8	-13	-8	-2	7
CCOc1ccc(-c2cnc3n2CCCCC3)cc1	-6	-16	i	8	-6	1	-2	-1
COC(=O)[C@H](CC(C)C)NS(=O)(=O)N(Cc1ccccc1)[C@@H](CC(C)C)C(=O)OC	4	.	.	20	5	.	-5	-5
O=C(O)C1CCCN1S(=O)(=O)c1cccc(S(=O)(=O)N2CCCC2C(=O)O)c1 (stereo not given)	-1	4	i	3	-4	-5	1	2
CN(CC(=O)Nc1ccccc1C(F)(F)F)C(=O)COc1ncnc2ccccc12	-2	1	i	17	-12	-6	0	2
Cc1cc(C)c2c(N)c(C(=O)c3ccc(Cl)c(Cl)c3)sc2n1	4	-3	i	-3	.	-15	2	-2
Cc1nc(N)c(Cc2ccc(Cl)cc2Cl)c(N)n1	-7	-8	i	-33	.	-5	1	-6
CCN(C[C@H]1N[C@@](C)(C(=O)OC)[C@H]2C(=O)N(Cc3ccccc3)C(=O)[C@@H]12)C(=O)c1ccc(C)cc1	.	.	.	10	-5	.	1	5
N#CC[C@H](Cc1ccccc1)N1CC[C@@H](O)CCC1=O	-2	4	i	?	-7	-8	1	1
CC(=O)Nc1ncc(Cc2cccc(Cl)c2Cl)s1	10	0	i	-6	.	8	5	4
O=C(COc1ncnc2ccccc12)NC1CCCCC1	-16	.	.	.	0	.	7	5

A stretch from further up, for reference:
SMILES	CSC inhib	PABP polyA inh	Rce1 inh	HIV Env fusion	Yeast UUG start	eIF4H FP inh	MT1-MMP act inh	MT1-MMP act inh RFP
CCOC(=O)C1=C(COC(=O)CNS(=O)(=O)c2ccc(C)c(C)c2)NC(=O)NC1C (stereo not given)	.	.	.	-28	16	.	2	4
O=C(Nc1ccccn1)c1cc2ccccc2o1	47	44	i	.	-74	10	3	1

Compound activity as filed in PubChem BioAssay.
